# KCNQ2 enhance = enhances the rat KCNQ2 potassium channel; O88943; B-score at 10 µM; actives 0.54% (n = 310,000); CHO-K1 KCNQ2, FluxOR thallium flux fluorescence; hits give high values;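 active means fluorescence ratio B-score at least 3 SD of library B-scores, with initial fluorescence B-score within 3 SD, cut at about 5.3 in these data; same plate scores as AID 2156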;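 further: B-score of peak minus minimum over baseline fluorescence ratio after K+ and Tl+ stimulus; positive B-score means potentiation of KCNQ2 with more thallium influx and brighter signal; only the inactives scoring about 0 or higher are listed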
# Target sequence (O88943 whole entry, looked up): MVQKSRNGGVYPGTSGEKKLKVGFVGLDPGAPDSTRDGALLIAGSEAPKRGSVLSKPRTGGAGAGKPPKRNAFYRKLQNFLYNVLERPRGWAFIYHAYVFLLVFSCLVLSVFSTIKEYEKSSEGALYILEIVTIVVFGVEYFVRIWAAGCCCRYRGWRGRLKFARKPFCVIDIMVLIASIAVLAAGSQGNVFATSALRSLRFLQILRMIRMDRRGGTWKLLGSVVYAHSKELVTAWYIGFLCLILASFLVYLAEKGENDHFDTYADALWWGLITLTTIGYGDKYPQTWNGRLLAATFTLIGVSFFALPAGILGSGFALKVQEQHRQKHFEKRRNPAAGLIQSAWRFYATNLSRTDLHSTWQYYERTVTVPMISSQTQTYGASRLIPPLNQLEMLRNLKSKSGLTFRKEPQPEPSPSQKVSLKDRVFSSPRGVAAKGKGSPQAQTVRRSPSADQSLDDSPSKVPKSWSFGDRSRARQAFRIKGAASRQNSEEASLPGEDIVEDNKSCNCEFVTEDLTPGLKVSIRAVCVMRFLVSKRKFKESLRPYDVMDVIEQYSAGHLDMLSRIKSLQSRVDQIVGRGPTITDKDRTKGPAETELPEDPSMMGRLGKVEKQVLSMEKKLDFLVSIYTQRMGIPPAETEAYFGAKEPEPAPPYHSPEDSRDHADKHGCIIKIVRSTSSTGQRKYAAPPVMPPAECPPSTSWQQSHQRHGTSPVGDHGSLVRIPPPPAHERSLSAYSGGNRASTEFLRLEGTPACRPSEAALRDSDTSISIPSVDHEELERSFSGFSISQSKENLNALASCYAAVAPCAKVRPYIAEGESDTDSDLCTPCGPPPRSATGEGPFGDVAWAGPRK
# KCNQ2 enhance baseline = further read-out of KCNQ2 enhance, marked with its call; B-score; compound at 10 µM; measured here: initial fluorescence intensity artifact check;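 brightness before thallium and not channel activity; 0 = typical well and far values either way flag optical interference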
# * hit, by the source's call; & = joins results of further samples. The list is partial (hit frequency here may not be typical).
# Every second line gives: KCNQ2 enhance | KCNQ2 enhance baseline
- CN(Cc1ccccn1)Cc1nc(-c2ccc(Cl)cc2)no1
  0.36 | -2.1
- Cc1cccc(NC(=O)C2CC(=O)N(Cc3ccccc3)C2)n1 (stereo not drawn)
  0.98 | -1.5
- O=C(NCc1ccc(F)cc1)Nc1cccc([N+](=O)[O-])c1
  1.1 | -1.4
- NC(=O)NC(=O)CSc1cccc(C(F)(F)F)c1
  0.98 | -2.2
- CC(C)n1cc(CN2CCCC(CNS(=O)(=O)c3cccc4cccnc34)C2)cn1 (stereo not drawn)
  0.15 | 0.04
- Oc1ccccc1CNCC12CC3CC(CC(C3)C1)C2
  1.5 | 0.79
- COC(=O)CN1C(=O)C(C)(C)Oc2ccc(C(=O)NC3CC3)cc21
  0.64 | 0.54
- C/C=C(\C)c1nnc(NC(=O)OCC)s1
  1 | -0.48
- c1ccc2sc(C3CCN(Cc4nnnn4Cc4ccc5c(c4)OCO5)CC3)nc2c1
  0.16 | 0.7
- Cc1nn(C(C)C(=O)NCC2CCCO2)c(=O)c2cc3occc3n12 (stereo not drawn)
  0.53 | -1.2
- CCc1ccc(CCC(=O)Nc2ccc(C)c(C)c2)o1
  5 | -1.5
- CCOC(=O)CN(C(=O)CSc1nnc(-c2ccncc2)n1CCCOC)c1ccccc1
  1.9 | -1.6
- CCOC(=O)C1CCCN(S(=O)(=O)c2ccc(OC)cc2)C1 (stereo not drawn)
  0.12 | 1.7
- COc1cc(OC)c2c(C)cc(=O)oc2c1C(CCN1CCOCC1)c1ccc(N(C)C)cc1 (stereo not drawn)
  1.1 | -1.3
- O=C(c1cc(COc2c(F)cccc2F)on1)N1CCc2ccccc2C1
  0.07 | 1.9

# Every second line gives: KCNQ2 enhance | KCNQ2 enhance baseline
- C=CCc1cccc(/C=N/NC(=O)CNc2ccccc2OC)c1O
  6.2* | 0.39*
- CCOc1ccc(CC(=O)OCn2nnc3ccccc3c2=O)cc1
  0.27 | 0.75
- CN(C)c1nc(OCCNC(=O)Nc2ccc(Cl)cc2)nc(N(C)C)n1
  0.05 | -0.9
- CC1CCCN(CCCNC(=O)c2nn(C)c3c2CS(=O)(=O)c2ccccc2-3)C1 (stereo not drawn)
  0.81 | -0.99
- CN(C)CCNC(=O)C(=O)NCC1OCCN1S(=O)(=O)c1ccc2c(c1)OCCO2 (stereo not drawn)
  0.33 | -0.73
- CCCOc1ccc(C2=NNC(=O)CC2)cc1
  1.8 | -0.02
- COC(=O)c1sc(NC(=S)NC(=O)c2cccc(Br)c2)nc1C
  1.6 | -0.39
- CC(C)(C)c1ccc(-c2cn(-c3ccc(Br)cc3)c3[n+]2CCCS3)cc1
  0.6 | 0.92
- Cn1c(=O)oc2cc(S(=O)(=O)NCCC(=O)NCCc3ccccc3)ccc21
  0.67 | 0.55
- N#C/C(=C/c1ccc(OCc2ccc(C(=O)O)cc2)cc1)C(=O)Nc1ccccc1
  1.7 | 0.01
- O=C1CC(c2ccc(S(=O)(=O)Nc3cc(C(F)(F)F)cc(C(F)(F)F)c3)cc2)CN1 (stereo not drawn)
  1.6 | 0.02
- O=[N+]([O-])c1ccc(C2CN=C(Nc3ccccc3)S2)cc1 (stereo not drawn)
  1.2 | 0.03
- CCOc1c2ccc(C(=O)NC3CCCc4ccccc43)cc2nn1CC (stereo not drawn)
  1.6 | -2.1
- CCOc1cc(C(=O)OCc2cccc(OC)c2OC)ccc1OCC(=O)N1CCOCC1
  1.2 | -1.4
- COc1cc(/C=N\NC(=O)c2ccccc2F)ccc1Oc1ccc([N+](=O)[O-])cn1
  0.14 | 1.7

# Every second line gives: KCNQ2 enhance | KCNQ2 enhance baseline
- CCn1c(CCNS(=O)(=O)c2ccccc2Br)nnc1SC
  0.46 | -0.01
- CCOCCCNC(=O)Cn1cc2c(n1)CCCCC2
  1.2 | -0.48
- Cc1cc(NC(=O)C(C)SCC(=O)OCc2ccc([N+](=O)[O-])cc2)no1 (stereo not drawn)
  0.13 | -1.7
- O=C(NNC(=S)Nc1cccc(C(F)(F)F)c1)c1ccc(Cl)cc1Cl
  2.2 | 0.39
- CCn1c(SCC(N)=O)nc2ccccc2c1=O
  0.33 | 1.6
- Nc1nc(NCC2CCCO2)nc(Nc2cccc(Cl)c2)c1[N+](=O)[O-] (stereo not drawn)
  1.3 | -0.05
- CSc1nnc2c(n1)OC(c1ccccn1)N(C(C)=O)c1ccccc1-2 (stereo not drawn)
  0.63 | -1.2
- Cc1n[nH]c(=S)c2nn(-c3ccccc3F)c(C)c12
  0.23 | 0.09
- Cc1ccc(SCC(=O)Nc2nnc(-c3ccco3)o2)cc1
  5.6* | 0.95*
- CC(C(N)=O)N1c2cccc3cccc(c23)S1(=O)=O (stereo not drawn)
  0.03 | -1.8
- CC(C)N(Cc1ccccc1)C(=O)COC(=O)c1cnccn1
  0.17 | -0.32
- COc1ccc(S(=O)(=O)NCCSCc2ccco2)cc1Cl
  0.75 | 1.6
- CCCc1ccc(C(=O)CCC(=O)NNC(=O)c2ccncc2)cc1
  0.66 | 0.86
- CN(C)c1ccc(/C=N\NC(=O)CC#N)cc1
  0.29 | 0.19
- CCN1CCN(CC(=O)Nc2cccc(C)c2)C(=O)C1=O
  0.96 | 0.68

# Sorted by length of the SMILES (ascending): part of the list above
# Every second line gives: KCNQ2 enhance | KCNQ2 enhance baseline
- CCn1c(SCC(N)=O)nc2ccccc2c1=O
  0.33 | 1.6
- CCn1c(CCNS(=O)(=O)c2ccccc2Br)nnc1SC
  0.46 | -0.01
- CC(C(N)=O)N1c2cccc3cccc(c23)S1(=O)=O (stereo not drawn)
  0.03 | -1.8
- CCCc1ccc(C(=O)CCC(=O)NNC(=O)c2ccncc2)cc1
  0.66 | 0.86
- O=C(NNC(=S)Nc1cccc(C(F)(F)F)c1)c1ccc(Cl)cc1Cl
  2.2 | 0.39
- Nc1nc(NCC2CCCO2)nc(Nc2cccc(Cl)c2)c1[N+](=O)[O-] (stereo not drawn)
  1.3 | -0.05

# Other compounds:
# Every second line gives: KCNQ2 enhance | KCNQ2 enhance baseline
- Nn1c(=O)c2ccccc2n2c(SCc3ccc(C(F)(F)F)cc3)nnc12
  0.59 | -1.1
- CC(=O)Nc1ccc(N2C(=O)c3ccc(S(=O)(=O)c4ccc(C(=O)O)cc4)cc3C2=O)cc1
  0.14 | -0.49
- CC1=NOC(=O)/C1=C\c1ccc(-c2cccc(Cl)c2)o1
  0.13 | -0.05
- CC1CCN(c2ccccc2NC(=O)c2ccc(N3CCOCC3)c([N+](=O)[O-])c2)CC1
  0.15 | -0.94
- O=C(COc1ccccc1)N1CCN(C(=O)c2cccs2)CC1
  1.5 | -0.13
- COc1ccccc1NS(=O)(=O)c1cccc(C(=O)NCC(c2ccco2)N2CCCCC2)c1 (stereo not drawn)
  0.25 | -0.91
- S=C(Nc1ccccc1Cl)N1CCN(c2ccccn2)CC1
  0.35 | -0.75
- C=CCOc1ccc(/C=N/NC(C)=O)cc1OCC
  0.04 | -1.1
- COc1ccc(NCc2nnc(SCCN3CCCCC3)n2-c2ccc(C)cc2)cc1
  0.48 | -0.08
- CCCOc1ccc(N2C(=O)CC(NCCNc3ccc([N+](=O)[O-])cn3)C2=O)cc1 (stereo not drawn)
  1.1 | 0.19
- COc1ccc(-n2ncc3c2CC(C)(C)CC3NC(=O)c2oc(C)cc2C)cc1 (stereo not drawn)
  0.54 | 0.41
- CC(C)(C)C1c2[nH]c3ccccc3c2CCN1CCCn1cccn1 (stereo not drawn)
  0.01 | -0.46
- Oc1c(Br)cc(Br)cc1C=Nc1ccc2[nH]ncc2c1
  14* | 0.09*
- COc1ccc(-c2csc(NC(=O)c3cccc(S(=O)(=O)N4CCN(C)CC4)c3)n2)cc1
  2 | 0.45
- CCCc1nnc(SCC(=O)Nc2ccccc2Cl)n1CC1CCCO1 (stereo not drawn)
  0.86 | -0.12

# Every second line gives: KCNQ2 enhance | KCNQ2 enhance baseline
- C=CCNC(=S)NNC(=O)c1ccc(=O)n(Cc2ccccc2)c1
  0.01 | -0.22
- N#Cc1ccc(OCc2nnc(SCC(=O)c3ccccc3)n2-c2ccccc2)cc1
  0.12 | -0.01
- Cc1ccc(NC(=O)Nc2ccccc2C#N)c(Cl)c1
  1.1 | 0.33
- COc1ccc(-c2cn[nH]c2N)cc1
  0.59 | -0.64
- C=CCSc1ncnc2c1oc1nc3c(cc12)COC(C)(C)C3
  0.61 | -0.02
- O=C(c1cc(-c2ccco2)on1)N1CCOCC1
  1.8 | 0.13
- COc1cccc(CSc2nnc(-c3ccncc3)n2N)c1
  1.2 | 0.65
- Cc1[nH]c(C)c(S(=O)(=O)N2CCN(c3ccc(Cl)cc3)CC2)c1C(=O)N1CCCC1
  0.58 | 1.6
- CCOCCCNC(=O)CNC(=S)N(Cc1ccccc1F)C1CCCCC1
  0.93 | -0.38
- CCCCCCCC(=O)NNC(=O)CC(=O)Nc1ccccc1C(=O)O
  1.2 | -0.04
- Clc1ccc(/C=N/N2CCCCC2)cc1
  1.1 | -1.1
- CC(C)OC(=O)C[N+](C)(C)CCN1C(=O)C2C(c3ccccc3)C=CC(c3ccccc3)C2C1=O (stereo not drawn)
  1.4 | 0.56
- COc1cc2sc(NC(=O)c3ccco3)nc2cc1Cl
  1 | -0.93
- CC(C(=O)NC(C)(C)C)N(C(=O)CS(=O)CC(=O)Nc1ccc(F)cc1)c1ccccc1F (stereo not drawn)
  0.03 | 0.75
- OCc1ccccc1CN1CCCCCC1
  1.5 | -0.53

# Every second line gives: KCNQ2 enhance | KCNQ2 enhance baseline
- CC(=O)Nc1ccc(C(=O)Nc2ccc3c(c2)OCO3)cc1
  0.29 | -0.57
- CC1(C(=O)N2CC3(CC(c4cccc(NC(=O)COc5ccc(Cl)cc5)c4)=NO3)C[C@@H]2C(N)=O)CC1 (stereo partly drawn)
  0.75 | -1.5
- O=c1c2cc(Cl)ccc2nc(-c2ccccc2Cl)n1O
  2.5 | -1.4
- CC(=O)Nc1nc(C)c(-c2csc(Nc3ccccn3)n2)s1
  5&1.6 | -1.2&0.14
- CN(Cc1ncc[nH]1)C(=O)c1cc(COc2c(F)cccc2F)on1
  1.8 | 0.01
- CCc1cc(=O)[nH]c(SCc2cccc3ccccc23)n1
  0.81 | 0.1
- O=c1oc2ccccc2c(NCc2ccc(Cl)cc2)c1[N+](=O)[O-]
  1.1 | 1.1
- CCN(CC)c1ccc(C(=S)NC2CCCCC2)cc1
  0.67 | -0.06
- c1ccc(COc2ccccc2CNCc2cccnc2)cc1
  0.06 | -0.01
- COc1cc(NC(=O)CCS(=O)(=O)c2ccc3c(c2)oc(=O)n3C)cc(OC)c1OC
  0.02 | 1.5
- O=C(CNC(=O)c1ccco1)N/N=C/c1ccc(O)c([N+](=O)[O-])c1
  0.97 | 0
- CN(C)c1ccnc(-n2cccc2/C=N/O)c1C#N
  0.58 | 0.19
- O=C(c1ccccc1)N1CCN(C(=O)c2ccncc2)CC1
  0.22 | 0.53
- CC(=O)/C=N/Nc1ccccc1
  1.1 | 2.1
- CCCC[C@@H]1CNC(=O)C(=O)N1CCc1cc(C(F)(F)F)cc(C(F)(F)F)c1
  1.3 | -1.3

# Every second line gives: KCNQ2 enhance | KCNQ2 enhance baseline
- O=C(O)Cc1ccc2oc(-c3cccnc3)nc2c1
  2.1 | -2.5
- Cc1sc2nc(SCC(=O)O)[nH]c(=O)c2c1C
  0.12 | -0.74
- C=CCOc1cccc(C(=O)Nc2ncn[nH]2)c1
  0.01 | -0.01
- CCCc1cc(=O)[nH]c(SCCN2C(=O)c3ccccc3C2=O)n1
  2 | -0.07
- CCOc1cc(NC(=S)NCCOC)c(OCC)cc1NC(=O)c1cccs1
  0.38 | 0.28
- Cc1ncc(CN2CCC(C(=O)Nc3ccc(-n4cccn4)cc3)CC2)s1
  0.35 | 0.28
- Cc1c(N=Cc2nc3ccccc3[nH]2)c(=O)n(-c2ccccc2)n1C
  0.13 | -2.4
- COc1ccc(S(=O)(=O)Nc2c(C)nc3nc[nH]n3c2=O)cc1
  1.6 | 0.07
- CCCC(C(=O)NCCc1ccc(S(N)(=O)=O)cc1)c1ccccc1 (stereo not drawn)
  0.69 | 0.4
- CCc1ccc(C(=O)N2CCN(c3ccc(NC(=O)c4ccco4)cc3)CC2)cc1
  0.12 | 1.8
- COc1ccc(OC)c(CNC(=O)Cn2nc(C)c3c(C)n(-c4ccc(C)cc4)nc3c2=O)c1
  0.81 | -1.2
- Cc1ccc(S(=O)(=O)N(CCC(=O)O)c2ccccc2)cc1
  1.1 | 0.04
- O=c1[nH]c(CN2CCc3ccccc3C2)nc2ccccc12
  0.48 | -4
- O=C(NNC1=C(C(=O)C(F)(F)F)CCC1)c1cccc(O)c1
  4.4 | -1.8
- CC(Oc1ccc(Cl)cc1Cl)C(=O)NCCCN(C)C (stereo not drawn)
  1.3 | -0.17

# Every second line gives: KCNQ2 enhance | KCNQ2 enhance baseline
- CCOC(=O)c1sc(NC(=O)c2ccc(S(=O)(=O)N(CC)CC)cc2)nc1C
  0.01 | -1.9
- Cc1ccc(Nc2nnc(SCc3nc4ccccc4c(=O)[nH]3)s2)cc1
  0.62 | 0.06
- COc1ccc(CNc2c(C(=O)O)cnc3c2cnn3C)cc1
  0.83 | -1.3
- Cc1c(C(=O)Nc2cccc([N+](=O)[O-])c2)csc1-c1ccccc1
  1.6 | -0.01
- COc1ccc(C(=O)Nc2ccnn2C2CCN(Cc3ccccn3)CC2)cc1
  0.48 | -0.02
- CC1CCN(C(=O)CSc2nc3c(c(=O)n2C)SCC3)CC1
  0.91 | 1
- COc1c(C)cc(Br)cc1C(=O)NC(=S)NCc1ccco1
  2.7 | 0.44
- Cc1ccc(S(=O)(=O)Nc2ccc(C(=O)N3CCOCC3)cc2)cc1
  0.17 | -1.6
- O=C(Nc1cccc(-c2nnc(-c3ccccc3)o2)c1)C1CCCCC1
  1.5 | -1.6
- CN(C)S(=O)(=O)c1ccc(NC(=O)c2ccncc2)cc1
  0.7 | 0.02
- COc1ccc(C(=O)NCc2nnc(SCC(=O)N3CCCCC3)o2)cc1
  1.8 | -0.31
- CNC(=O)CCc1[nH]c2ccccc2c1Sc1ccccc1
  0.39 | 0.45
- NC(=O)c1cccc2c1C(=O)N(C1CCCCC1)C2
  2.1 | 0.67
- O=C(NNC(=O)C1CCCC1)c1ccc(F)cc1
  1.8 | -0.31
